Bioassay records as filed in PubChem BioAssay.
Rango dissoc inh: inhibitors of RanGTP-induced Rango-importin beta complex dissociation | Biochemical FRET Rango-importin beta, RanGTP-induced dissociation | Potency, µM (top dose mostly 46.1 µM), without a hit: at the highest dose activity change, negative = inhibition | actives 0.071% (n = 340,000) | AID 540253; active means falling FRET ratio curve, often poorly fitted, with flat reads before Ran was added; inconclusive means other falling curves, or compound fluorescence or quenching; inactive means flat or rising ratio curve;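 further: potency means the concentration at half of the fitted maximal effect; % of control where 0% means no effect; nearly all actives have a fitted effect of over 45% in size; -100% = wells without RanGTP and RCC1; the record marks most hits as doubtful in a second field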
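Rango FRET biosensor (snurportin-1 IBB flanked by N-terminal EYFP and C-terminal CFP10) at 0.1 uM, with 0.25 uM importin beta in PBS, 1mM DTT, 0.02% Tween-20, 0.1% BSA. 0.6 uM Ran, 2mM GTP and 0.2 uM RCC1 were then added for 45 min at room temperature. Inhibition read as loss of FRET rise.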
Rango-impB inh: Rango-importin beta binding inhibition. Q14974. Rango CFP/YFP FRET sensor + importin beta, 45 min. Potency, µM (doses to about 92.2 µM), for inactives: at the highest dose inhibition of complex formation. actives 0.031% (n = 340,000). AID 540263; active = rising FRET ratio curve, often small or poorly fitted; inconclusive = mostly compound fluorescence or quenching in the first reads; inactive = flat curves in all reads;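 further: potency means the concentration at half of the fitted maximal effect; 0% = DMSO wells and 100% = buffer wells lacking importin beta; nearly all actives have a fitted effect of over 15% in size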
Target sequence (Q14974 whole entry, looked up): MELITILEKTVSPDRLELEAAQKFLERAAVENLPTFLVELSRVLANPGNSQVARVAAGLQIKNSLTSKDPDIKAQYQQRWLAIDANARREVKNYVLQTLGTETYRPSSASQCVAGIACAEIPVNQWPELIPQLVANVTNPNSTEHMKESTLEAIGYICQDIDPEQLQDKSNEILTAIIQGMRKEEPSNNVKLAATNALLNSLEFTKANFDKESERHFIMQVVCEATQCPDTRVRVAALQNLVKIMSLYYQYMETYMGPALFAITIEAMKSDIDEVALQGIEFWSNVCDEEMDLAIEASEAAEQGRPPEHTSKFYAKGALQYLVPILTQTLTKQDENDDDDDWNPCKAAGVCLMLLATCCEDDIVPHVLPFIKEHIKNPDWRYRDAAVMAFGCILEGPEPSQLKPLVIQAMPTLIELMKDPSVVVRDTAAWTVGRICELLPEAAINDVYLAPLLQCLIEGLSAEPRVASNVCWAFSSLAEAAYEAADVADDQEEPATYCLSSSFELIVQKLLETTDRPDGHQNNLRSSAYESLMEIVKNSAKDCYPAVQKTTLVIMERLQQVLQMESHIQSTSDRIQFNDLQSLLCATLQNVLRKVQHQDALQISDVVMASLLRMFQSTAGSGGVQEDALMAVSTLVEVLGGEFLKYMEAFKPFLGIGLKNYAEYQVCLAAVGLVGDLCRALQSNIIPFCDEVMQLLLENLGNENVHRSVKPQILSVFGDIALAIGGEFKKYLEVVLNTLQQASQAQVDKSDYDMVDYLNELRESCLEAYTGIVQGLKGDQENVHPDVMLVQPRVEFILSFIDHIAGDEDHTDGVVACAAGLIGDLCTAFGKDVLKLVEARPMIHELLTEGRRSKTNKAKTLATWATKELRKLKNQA
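FRET biosensor (snurportin 1 IBB flanked by EYFP and cerulean), 50 nM, with compound 5 min, then 0.125 microM importin beta in PBS, 1 mM DTT, 0.02% Tween-20, 0.1% BSA. CFP/YFP ratio read after 45 min at room temperature; pre-read flags interference.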
GLA inh pH 4.5: alpha-galactosidase A (human) inhibition, pH 4.5. P06280. activity change, negative = inhibition, % at 105 µM. 230,000 tested, under 10 active. AID 1467. purified enzyme, 4-MU-alpha-Gal fluorescence, pH 4.5; inconclusive = small, poorly fitted or top-dose-only inhibition, or a rising curve; inactive = flat fitted curve, though single readings scatter; no compound was filed as active;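 further: 0% = full activity with enzyme and -100% = basal without enzyme; dose as in the result columns while the protocol names 77 µM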
miR-21 reporter: raises the signal of a miR-21 reporter | HeLa miR-21 FLuc reporter, luciferase, 48 h | Potency, µM (titrated, usually from 38.3 µM), for the others: at the highest dose reporter change, positive = more light | 340,000 tested, under 10 active | AID 2288; active = well fitted rising curve with a large enough effect; inconclusive = small, poorly fitted or top-dose-only effect; inactive = no such curve, though single readings can be large or run the other way;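 further: % of control where 0% means no effect; miR-21 action dims this reporter so a rising signal means less miR-21 action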
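Using DMEM plus 10% FBS, HeLa miR-21-FLuc cells are incubated with test compounds (final up to about 40uM) for 48 hours; firefly luciferase signal is then imaged following reagent-mediated lysis.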
The depositor's hits bear a star; ? = inconclusive; / = not tested or not shown. A portion of the library; rates above refer to the full screens.

Rango dissoc inh,Rango-impB inh,GLA inh pH 4.5,miR-21 reporter,Structure
22%,-1.5%,-5,-15%,Cc1ncc2c(c1OC(=O)c1ccccc1)COC(C)(C)OC2
8%,1.5%,/,/,CCN(CC(=O)NCc1cccs1)C(=O)COc1ccc(C(C)=O)cc1
0%,-0.8%,-5,0%,O=C(O)c1ccccc1-n1c(-c2ccccc2)cc2c1CCCC2=O
0%,-3.8%,-28,9%,CC(NCC1(N2CCOCC2)CCCCC1)C(=O)Nc1ccc(Cl)cc1Cl (stereo unspecified)
1%,-3.7%,8,-6%,CCCC(C)C(=O)NCc1ccc2c(c1)OCO2 (stereo unspecified)
17%,-3.6%,/,/,Cc1ccc(S(=O)(=O)CCC(=O)OCC(=O)NNC(=O)c2ccc([N+](=O)[O-])cc2)cc1
3%,0.5%,-4,-30%,CSc1cccc(NC(=O)CCc2ccccc2)c1
-3%,-2.7%,-3,2%,CCOc1ccc(NC(=S)N2c3ccccc3CC2C)cc1 (stereo unspecified)
-14%,1.5%,4,1%,Cc1ccc(OCc2nnc(SCC(=O)c3cccs3)n2-c2ccccc2)cc1C
-19%,-1.5%,-4,-28%,CCS(=O)(=O)c1cc([N+](=O)[O-])c(Sc2ccccc2NC(C)=O)s1
17%,0.3%,-2,-8%,Cc1ccc(C2(C)NC(=O)N(CC(=O)Nc3c(C)n(C)n(-c4ccccc4)c3=O)C2=O)cc1 (stereo unspecified)
25%,-3.2%,7,-4%,O=C(Cc1coc2ccc3ccccc3c12)NC1CCCc2ccccc21 (stereo unspecified)
-9%,6.2%,/,/,CN(C(=O)c1ccc(NC(=O)Cc2cccc(NC(=O)C3CCCN(C(=O)C4CC4)C3)c2)cc1)C1CC1 (stereo unspecified)
4%,1.4%,/,-15%,CN(C)CCCN(C(=O)c1ccc(S(=O)(=O)N2CCc3ccccc32)cc1)c1nc2ccc(F)cc2s1
0%,-1.0%,-6,-13%,CCN1CCN(C(C(=O)NC2CCCCC2)c2ccc(Cl)cc2)CC1 (stereo unspecified)

Further entries:
Rango dissoc inh,Rango-impB inh,GLA inh pH 4.5,miR-21 reporter,Structure
16%,-2.9%,/,-2%,Cn1c(=O)c(C(=O)NCc2ccccc2)c(O)c2ccccc21
0%,0.0%,/,1%,CCOCc1nnc(NC(=O)C2CCN(C(=O)c3ccco3)CC2)s1
-2%,2.4%,/,0%,NC(=O)CC(NC(=O)c1cccc(Br)c1)c1ccc(N2CCN(c3ccccn3)CC2)c([N+](=O)[O-])c1 (stereo unspecified)
-6%,0.9%,-1,2%,CCC1C(=O)Nc2nc(-c3ccccc3)c(-c3ccccc3)n2N=C1C (stereo unspecified)
?,?,0,-2%,CC(C)(C)C1=NN(c2ccc([N+](=O)[O-])cc2)C(c2ccccc2)C1 (stereo unspecified)
-11%,?,-10,-6%,O=[N+]([O-])c1c(NCCO)cc(N2CCC3(CC2)OCCO3)c2nonc12
0%,1.6%,-2,-8%,COc1ccc(S(=O)(=O)Nc2ccc(NC(C)=O)cc2)cc1OC
3%,2.3%,0,-9%,CC1Cc2ccccc2N1CC(=O)NCc1ccc2c(c1)OCO2 (stereo unspecified)
?,?,-9,2%,COc1ccc(/C=C2\NC(=S)N(CC3CCCO3)C2=O)c(OC)c1C (stereo unspecified)
-10%,0.6%,0,-7%,CC(C)(O)C#Cc1ccccc1C(=O)NC(CC(N)=O)C(=O)O (stereo unspecified)
-2%,-4.9%,4,-20%,COc1ccc(/C=N/NC(=O)c2ccc(CN3c4cccc5cccc(c45)S3(=O)=O)cc2)cc1
-4%,?,/,/,O=[N+]([O-])c1ccc(-c2c(-c3ccccc3)ncc3ccc(F)cc23)cc1
0%,-0.2%,/,/,O=C1NC(=O)C2(CCCCCCC2)N1
-10%,-2.7%,6,-2%,COCCSc1nnc(NS(=O)(=O)c2ccc(F)cc2)s1
1%,0.3%,-6,-26%,O=C(CSc1nnnn1-c1ccc(F)cc1)c1ccc(O)c(O)c1

(listing goes on)
Rango dissoc inh,Rango-impB inh,GLA inh pH 4.5,miR-21 reporter,Structure
-3%,4.3%,13,-3%,CN(C)S(=O)(=O)c1cccc(C(=O)C2=C3SC=C(c4ccccc4)N3CC2)c1
-6%,2.3%,/,-1%,COc1ccc(/C=N\N2CCN(Cc3ccccc3Cl)CC2)cc1
11%,-3.4%,-3,-2%,Cc1cccc(C)c1OCC(=O)N(Cc1cccs1)C1CCS(=O)(=O)C1 (stereo unspecified)
1%,3.3%,-18,0%,CC(C)(C)c1ccc(/C=C2/SC(N3CCCC3)=NC2=O)cc1
3%,1.2%,2,-4%,CN(C)S(=O)(=O)c1ccc(C(=O)Nc2ccc(OCC(=O)N3CCOCC3)cc2)cc1
-12%,2.1%,-6,-18%,O=C(Nc1nc2c(Cl)cccc2s1)c1ccc(Br)o1
?,0.0%,-3,-43%,C=CCNc1oc(COc2ccc(C)cc2)nc1C#N
1%,-0.7%,-13,-3%,Cc1csc(SCC(=O)Nc2c(C)n(C)n(-c3ccccc3)c2=O)n1
1%,0.1%,-21,0%,CS(=O)(=O)N(CC(=O)Nc1cccc([N+](=O)[O-])c1)c1ccccc1F
3%,-6.5%,6,-2%,O=c1c2c(nc3nc(SCc4ccccc4)[nH]n13)CCC2
?,0.9%,/,-19%,CC(C)c1ccc(Nc2ccc(C(=O)O)cc2[N+](=O)[O-])cc1
0%,-3.0%,/,-2%,COc1cccc(C(=O)N2CCN(c3ccccn3)CC2)c1
3%,4.3%,?,1%,Cc1ccc(-c2cc(C(=O)NCc3ccccn3)c3ccccc3n2)cc1
-4%,2.2%,/,-4%,O=C(Nc1cc([N+](=O)[O-])ccc1Cl)c1cccnc1
10%,-0.4%,/,11%,Cc1cnc(NC(=O)C2CC(=O)N(c3cccc(Cl)c3)C2)s1 (stereo unspecified)

The listing continues:
Rango dissoc inh,Rango-impB inh,GLA inh pH 4.5,miR-21 reporter,Structure
10%,0.0%,-11,6%,Brc1ccccc1-c1nnc(COc2ncnc3c2cnn3-c2ccccc2)o1
-3%,1.6%,/,0%,Cc1c(C(=O)N2CCCCC2)c(S(=O)(=O)NCCc2ccc(S(N)(=O)=O)cc2)c(C)n1C
10%,3.0%,6,-6%,O=C(CSc1nc(O)c(Cc2ccccc2)c(=O)[nH]1)Nc1nnc(SCc2ccccc2)s1
1%,1.4%,3,0%,CC(C)CC(=O)NC(=S)Nc1cccc(NC(=O)c2ccccc2Cl)c1
6%,1.9%,/,/,O=S(=O)(Nc1ccc(-n2cnnn2)cc1)c1ccc(Cl)s1
-15%,3.6%,/,-1%,COc1cc(/C=C2\N=C(C)OC2=O)cc(OC)c1OC
13%,-4.9%,/,/,C[C@@H]1COC(=O)[C@H](CC(=O)OC(C)(C)C)C/C=C\C[C@@H](CC(=O)N(CCO)Cc2ccccc2)C(=O)N1
23%,-2.3%,3,-2%,C=CCNc1nc(S(=O)Cc2ccc(C)cc2)nc2c1CCCC2 (stereo unspecified)
6%,-1.8%,7,3%,CC(=O)c1ccc(NC(=O)CN2C(=O)CCC2=O)cc1
2%,-3.5%,3,2%,CCOc1ccc(N=C2NC(=O)C(CC(=O)Nc3ccc(OC)cc3)S2)cc1 (stereo unspecified)
3%,0.1%,/,-7%,O=C(Nc1cccc(F)c1)c1cccnc1
11%,0.6%,-2,-4%,CC(C)C(NS(=O)(=O)c1ccc(Br)s1)C(=O)O (stereo unspecified)
1%,-0.6%,-9,-2%,O=C(c1ccc(N2CCCCC2)c([N+](=O)[O-])c1)N1CCN(c2ccccn2)CC1
0%,0.4%,3,-2%,Cc1ccc2nc(N3CCOCC3)c(C=O)c(=O)n2c1
/,/,7,4%,O=C(O)CNC1=NCCC1

Next section:
Rango dissoc inh,Rango-impB inh,GLA inh pH 4.5,miR-21 reporter,Structure
-13%,-0.3%,2,-8%,CC(C)NC(=O)Cn1nnc(-c2ccc(Cl)cc2)n1
-5%,-3.5%,7,9%,COCC1CCN(C(=O)c2cc(COc3ccc4ncccc4c3)on2)CC1
9%,0.6%,/,/,COCCN(C(=O)CSc1n[nH]c(-c2ccccc2)n1)c1c(N)n(CC(C)C)c(=O)[nH]c1=O
-7%,0.9%,-1,-69%,Cc1nc(NC(=O)c2cc3c(s2)CCCCC3)sc1C(=O)N(C)C
21%,0.3%,-1,14%,Cc1ccc(C(=O)NC(=C(Cl)Cl)S(=O)(=O)c2ccc(C)cc2)cc1
3%,-0.4%,0,-42%,CN1C(=C2C(=O)OC(C)(C)OC2=O)Sc2ccccc21
-8%,-1.7%,/,1%,CCN(CCCNC(=O)CCC(=O)N1CCOc2ccccc21)Cc1ccccc1
-6%,1.4%,-1,-4%,COC(=O)Cc1c(C(=O)OC)nnn1-c1ccc(OC(F)(F)F)cc1
12%,1.0%,-28,19%,COc1ccc(NC(=S)NC(NC(=O)c2cccc3ccccc23)C(Cl)(Cl)Cl)c([N+](=O)[O-])c1 (stereo unspecified)
-13%,-0.1%,0,7%,CCOC(=O)C1CCCCN1Cc1ccc(F)c(Br)c1 (stereo unspecified)
-3%,-4.0%,-15,-1%,Cc1nc(-c2cccnc2)sc1C(N)=O
-3%,-1.9%,2,-3%,O=C(CSCc1c(Cl)cccc1Cl)Nc1cccnc1
/,/,-2,-62%,CCCCCNc1nc(-c2ccccc2)cs1
-4%,-0.2%,2,-12%,CCCN(CCC)S(=O)(=O)c1ccc(C(=O)NCc2n[nH]c(=S)n2-c2ccc(Cl)c(Cl)c2)cc1
-22%,?,/,?,Cc1ccc(C2CC(c3cccs3)=NN2C(=O)CCl)cc1 (stereo unspecified)

Continuation:
Rango dissoc inh,Rango-impB inh,GLA inh pH 4.5,miR-21 reporter,Structure
19%,6.8%,0,-2%,C[C@@H]1CN(c2nc3nonc3nc2N2CCSCC2)C[C@H](C)O1
0%,0.7%,-9,7%,COc1ccc(N=c2oc3c(OC)cccc3cc2C(=O)NCc2ccco2)cc1OC
2%,-0.6%,14,-9%,c1ccc(-n2nnnc2SCc2cn3ccccc3n2)cc1
-7%,0.1%,/,-5%,CC1CCCCC1NC(=O)c1cccc(NC2=NC3CS(=O)(=O)CC3S2)c1 (stereo unspecified)
3%,-0.3%,-3,-47%,COc1ccc(C(=O)NCC2OCCc3ccccc32)c(O)c1 (stereo unspecified)
14%,-1.8%,/,0%,C=C(C)CCC(C)N1CCC(n2nccc2NC(=O)CCCc2ccccc2)CC1 (stereo unspecified)
/,/,7,-13%,O=C(N/N=C/c1nn(-c2ccccc2)cc1-c1ccc(Cl)cc1)c1ccncc1
-5%,0.3%,-4,-13%,CCOc1ccc(-c2nnc3ccc(SCC(=O)Nc4nc5ccc(C)cc5s4)nn23)cc1
-25%,-3.5%,/,-2%,CCn1cc(SCC(=O)NC2CCCC2)c2ccccc21
-12%,0.8%,-1,-2%,COc1cc(C)c(S(=O)(=O)N2CCOCC2)cc1C
11%,-0.6%,/,-2%,Cc1nc(S(=O)(=O)c2ccc(Cl)cc2)c(N(C)C)o1
-13%,-0.9%,4,-1%,O=C(O)CCC(=O)NC1CCCCCCC1
-5%,-0.2%,-3,1%,Cc1cc(C)n2c(SCCO)nnc2n1
-13%,4.1%,4,-13%,O=C(Cn1nc2sc3ccccc3n2c(=O)c1=O)c1ccc(Cl)cc1
-10%,-3.3%,/,/,Cc1nn(C)c(C)c1NS(=O)(=O)c1ccccc1Cl
-12%,-2.4%,-13,-4%,COc1cc(/C=N/NC(=O)CCc2n[nH]c(=O)[nH]c2=O)cc(OC)c1OC
-1%,-2.2%,-7,0%,O=C(CSCc1cnn(-c2ccccc2)c1-n1cccc1)NCc1cccs1
